A647 fluor: compound fluoresces in the A647 spectral region; 59,000 tested, under 10 active; Compound fluorescence, A647 channel (570/671 nm), Tris buffer; AID 592; max dye-equivalent concentration, M; active means above 1 µM dye equivalent; inconclusive means 0.1 to 1 µM; inactive means 0.1 µM or less;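 further: values scaled relative to a standard on each plate; highest value over a series up to 38 µM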
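Fluorescence read (570 nm ex, 671 nm em) after 15 min RT incubation of compounds in 100 mM Tris buffer, pH 8.0; values expressed as dye-equivalent concentration against a six-point A647 standard series on each plate.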
AID923: qHTS Assay for Allosteric/Competitive Inhibitors of Caspase-1: Spectroscopic Profiling in AFC Spectral Region; compound fluorescence, AFC spectral region (405/520 nm); almost no hit is shown here; Potency, µM (highest dose often 57.5 µM), without a hit: at the highest dose fluorescence increase, hits mostly activators; 75,000 tested, 1.1% active; active means well fitted activation curve with a large enough effect; inconclusive means small, poorly fitted or top-dose-only effect;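 further: potency means the concentration at half of the fitted maximal effect; 0% is about no effect; scaled to a free AFC standard on each plate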
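Baseline compound fluorescence (AFC region, 405 nm ex/520 nm em) taken from the intercept of kinetic reads with 50 nM caspase-1 and 5 uM Ac-WEHD-AFC; normalized to an on-plate AFC standard curve; compounds titrated up to 57 uM.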
Resorufin fluor: compounds fluorescent in resorufin spectral region; 59,000 tested, 0.04% active; AID 588; Compound fluorescence, resorufin region 547/598 nm, buffer; active compounds read high; max dye-equivalent concentration, M; active = above 10 nM dye equivalent; inconclusive = 1 to 10 nM; inactive = 1 nM or less; a few of its hits are not listed in these tables; further: highest value over a series up to 38 µM
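Read-out: intrinsic compound fluorescence at ex 547/em 598 nm after 15 min at RT in pH 8.0 Tris (100 mM). Values expressed as resorufin-equivalent concentration from per-plate standard series.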
A488 fluor: compound autofluorescence in A488 spectral region | compound autofluorescence, A488 spectral region, dye equivalency; active compounds read high | max dye equivalency, M | 59,000 tested, 0.1% active; active = above 10 nM dye equivalent; inconclusive = 1 to 10 nM; inactive = 1 nM or less; about half of its hits are not listed in these tables;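 further: highest value over a series up to 38 µM; compound alone in buffer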
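Intrinsic compound fluorescence is measured in 100 mM Tris buffer at pH 8.0 following 15 min incubation at room temperature. Intensities at 480 nm excitation/540 nm emission are calibrated to an on-plate A488 concentration series, giving dye-equivalent concentrations.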
TSHR ag: agonists of human thyroid stimulating hormone receptor. AID 926. P16473. 73,000 tested, 0.48% active. Potency, µM (doses to about 57.1 µM), for inactives: at the highest dose activation, actives largely listed as activators. HEK293-CNG-TSHR cells (CNG channel as cAMP sensor), membrane potential dye, cAMP; active = well fitted activation curve of enough size with the parental cells flat; inconclusive = any curve in the parental cells; inactive = parental cells flat and receptor cells flat or falling; further: potency means the concentration at half of the fitted maximal effect; % of control where 0% means no effect; weak receptor curves with flat parental cells got no call and are not listed
Target sequence (P16473 whole entry, looked up): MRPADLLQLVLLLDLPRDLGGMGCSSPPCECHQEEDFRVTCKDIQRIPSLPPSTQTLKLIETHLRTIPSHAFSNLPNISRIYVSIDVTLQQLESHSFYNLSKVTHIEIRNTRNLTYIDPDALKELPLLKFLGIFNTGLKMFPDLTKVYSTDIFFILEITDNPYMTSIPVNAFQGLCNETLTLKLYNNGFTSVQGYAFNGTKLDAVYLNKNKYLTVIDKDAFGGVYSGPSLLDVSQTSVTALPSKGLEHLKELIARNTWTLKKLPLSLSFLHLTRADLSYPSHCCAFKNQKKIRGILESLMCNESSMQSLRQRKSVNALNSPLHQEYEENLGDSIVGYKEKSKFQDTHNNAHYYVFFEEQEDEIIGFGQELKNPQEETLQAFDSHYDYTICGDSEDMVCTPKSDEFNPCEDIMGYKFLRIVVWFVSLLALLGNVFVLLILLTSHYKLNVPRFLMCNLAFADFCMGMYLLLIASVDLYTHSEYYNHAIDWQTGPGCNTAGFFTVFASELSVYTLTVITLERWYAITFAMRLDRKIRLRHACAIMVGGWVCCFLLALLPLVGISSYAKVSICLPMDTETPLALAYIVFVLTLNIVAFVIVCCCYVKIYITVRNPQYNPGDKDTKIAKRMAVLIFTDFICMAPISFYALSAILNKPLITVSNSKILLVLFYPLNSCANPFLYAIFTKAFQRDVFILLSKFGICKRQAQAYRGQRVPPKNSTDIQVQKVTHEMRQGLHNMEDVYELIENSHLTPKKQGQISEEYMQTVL
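HEK 293 cells stably expressing TSHR and a modified CNG channel, with CNG-only parental cells as counterscreen, were preloaded 60 min at room temperature with membrane potential dye containing 100 uM RO 20-1724. Compound exposure was 30 min, and depolarization was read as fluorescence at 590 nm.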
An asterisk follows results filed as active; i = inactive; ? = inconclusive; . = no result given; & = joins results of further samples; [ ] = remark or other dose.

SMILES	A647 fluor	AID923	Resorufin fluor	A488 fluor	TSHR ag
O=C(CSc1nnc(Cn2c(=O)sc3ccccc32)n1-c1ccccc1)NCc1ccco1	.	-0.1%	.	.	6%
CCn1c(SCC(=O)Nc2nc(C)c(C(=O)OC)s2)nnc1C(C)C	1.2e-08	-0.6%	i	i	1%
CCCCN(C(=O)NC(=O)Nc1cc(C)ccc1C)S(C)(=O)=O	7.9e-09	-0.3%	i	i	2%
CCOC(=O)c1c(-c2ccc(C)o2)csc1NC(=O)CSc1nnnn1-c1ccccc1	3.8e-08	0.0%	i	i	?
CCOC(=O)Cc1csc(NC(=O)c2cccc(N3C(=O)CCC3=O)c2)n1	1e-09	1.8%	i	i	?
CCOC(=O)N1CCN(C(=O)CN(c2cccc(C)c2)S(=O)(=O)c2ccc(C)cc2)CC1	1.7e-08	-1.7%	i	i	7%
O=C(O)Cc1ccc(NC(=O)c2cccs2)cc1	3.8e-08	-1.4%	i	i	9%
CCOC(=O)c1ccccc1NC(=O)c1cccnc1	.	-3.3%	.	.	16%
O=C(O)c1cccc(COc2ccccc2Cl)c1	2.7e-09	4.9%	i	i	12%
O=C(c1ccc(Br)o1)N(Cc1ccccc1)c1ccccn1	.	-2.3%	.	.	?
CCOC(=O)c1[nH]c2c(c1C)C(=O)CC(c1ccco1)C2 (configuration not stated)	.	-2.0%	.	.	?
CC(C)=C1C(=O)C(c2ccccc2)=C2CN3C(=O)N(CCc4ccccc4)C(=O)[C@]3(Cc3ccc(C(F)(F)F)cc3)[C@H]21	.	0.0%	.	.	-4%
CC(C(=O)OCC(=O)Nc1ccc2c(c1)OCO2)N1C(=O)c2ccccc2C1=O (configuration not stated)	2.3e-08	-2.0%	i	i	12%
CCN1CCN(C(=O)c2ccc3c(=O)n(Cc4ccccc4OC)c(=S)[nH]c3c2)CC1	5.3e-09	0.7%	i	i	-5%
c1ccc(CCc2nn3c(-c4ccncc4)nnc3s2)cc1	1.5e-08	0.2%	i	i	8%
CCOC(=O)c1oc2ccccc2c1NC(=O)c1cccc(OC)c1	4.9e-09	1.7%	i	i	?
C=CCn1c(-c2cccs2)nc2ccccc21	4.4e-09	0.5%	i	i	.
COc1ccc(-n2c(Cc3cccn3C)nnc2SCC(=O)Nc2cc(Cl)ccc2OC)cc1	.	0.2%	.	.	2%
Cn1c(=O)c(C(=O)CN2CCOCC2)c(N)n(Cc2ccccc2)c1=O	1e-09	0.2%	i	i	?
COc1ccccc1C(=O)NCCNC(=O)c1ccco1	1e-09	0.1%	i	i	-1%
CCn1c(SCC(=O)c2[nH]c(C)c(C(C)=O)c2C)nnc1-c1ccncc1	4.2e-09	-1.4%	i	i	-3%
CCCn1nnnc1NC(=O)CSc1ccc(Cl)cc1	1e-09	-0.8%	i	i	11%
COC(=O)CCCc1nc2ccccc2s1	1e-09	0.5%	i	i	10%
C[C@@H]1Nc2ccc(Cl)cc2S(=O)(=O)N1	.	-1.6%	.	.	-7%
Fc1ccc(-c2ccc(-c3nn4c(-c5ccco5)nnc4s3)o2)cc1	1e-09	1.9%	i	i	?
CCOC(=O)c1c(NC(C)=O)sc2c(O)c(CN3CCN(CC)CC3)ccc12	1e-09	0.3%	i	i	?
COc1ccc(C(C)=O)cc1CSc1nc2ccccc2o1	2.3e-08	-0.8%	i	i	?
Cc1ccc(NC(=O)CCNS(=O)(=O)c2cccc3nonc23)cc1	1e-09	-0.9%	i	i	-10%
O=C(O)c1ccccc1NS(=O)(=O)c1cccc2ccccc12	.	-0.2%	.	.	5%
COCCn1nnnc1C(c1cc2cc(C)cc(C)c2[nH]c1=O)N1CCN(c2ccccc2F)CC1 (configuration not stated)	1.8e-08	0.6%	i	i	6%
COc1cc(-c2nn3c(-c4ccco4)nnc3s2)cc(OC)c1OC	1e-09	.	i	i	.
Cn1c(=O)c2c(nc(NCc3ccco3)n2CC(O)COc2ccccc2)n(C)c1=O (configuration not stated)	5.5e-09	-3.2%	i	i	2%
O=S(=O)(NCc1ccccc1)c1ccc2c(c1)OCCO2	5.2e-09	-1.1%	i	i	-1%
COc1ccc(OC)c(C(=O)c2coc3ccc(O)c(CN4CCOCC4)c23)c1	1e-09	0.9%	i	i	27%
OC(COc1cccc(OCC(O)CN2CCCC2)c1)CN1CCCC1 (configuration not stated)	.	-1.2%	.	.	-1%[11.4 µM]
CCCCCn1c(CN2CCCCC2CC)nc2c1c(=O)n(C)c(=O)n2C (configuration not stated)	.	-4.7%	.	.	?
Cn1c(NC(=O)c2ccco2)cc(=O)n(C)c1=O	.	-0.2%	.	.	-11%
CCOc1cc(C(=O)O)cc(Cl)c1OCC#N	3e-08	-1.0%	i	i	5%
COc1nc(NC(C)(C)C)nc(Oc2ccc(=O)n(-c3ccccc3)n2)n1	1.4e-08	-1.5%	i	i	?
COc1ccc(-c2csc(/C(C#N)=C(\O)CSc3nccn3C)n2)cc1OC	7.2e-09	-1.5%	i	i	-4%
COc1cc(C(C(=O)NC(C)(C)C)N(Cc2ccccc2)C(=O)c2cnccn2)cc(OC)c1OC (configuration not stated)	1e-09	-0.6%	i	i	-2%
CN1C(=O)NC(c2ccccc2)C2=C1CN(Cc1ccccc1)C2=O (configuration not stated)	6e-08	.	i	i	.
O=C(O)CCCCn1cnc2c(=S)nc[nH]c21	2.3e-08	-2.5%[11.5 µM]	i	i	-1%[11.4 µM]
CCC(=O)NCCC(c1ccco1)c1ccccc1OC (configuration not stated)	1e-09	4.0%	i	i	11%
O=C1NCCCc2c1oc1ccc(O)cc21	2.3e-09	1.1%	i	i	0%
CC(O)CNc1ncnc2nc[nH]c12 (configuration not stated)	3.6e-08	1.7%	i	i	-1%[11.4 µM]
C=CC[N+](C)(C)CCCNC(=O)/C=N/O	6.7e-09	.	i	i	.
C=C(C)CN(CC#N)CC(=C)C	1.3e-08	-0.8%[11.5 µM]	i	i	3%[11.4 µM]
CCOC(=O)c1nnn(-c2nonc2N)c1CN(CC)CC	.	0.7%	.	.	3%
CC(C)CN1C(=O)c2ccc(C(=O)Nc3ccccn3)cc2C1=O	3.3e-08	.	i	i	.
The listing continues:
SMILES	A647 fluor	AID923	Resorufin fluor	A488 fluor	TSHR ag
COc1ccc(CC(=O)n2nc(-c3cccnc3)nc2N)cc1	2.8e-08	0.2%	i	i	14%
O=C(Nc1cccnc1)c1cnn2c(C(F)F)cc(C3CC3)nc12	3.2e-08	0.1%	i	i	25%
O=C(c1cccc(Cl)c1)N1CCN(C(=O)c2ccco2)CC1	.	2.3%	.	.	-1%
Cc1ccccc1-c1nc(CN2CCCC(C(=O)NCCCN3CCOCC3)C2)c(C)o1 (configuration not stated)	1e-09	-0.2%	i	i	9%[11.4 µM]
C=CC(=O)OCCCC	.	-2.2%	.	.	?
CN(C)CC(C)(C)CNC(=O)C1CCN(Cc2ccccc2O)CC1	1e-09	0.1%	i	i	?
CCOc1ccc(C(=O)NCc2cccnc2)cc1	.	-1.7%	.	.	-2%[11.4 µM]
CCCn1c(N)c(C(=O)CN2CCN(S(=O)(=O)c3cccs3)CC2)c(=O)[nH]c1=O	3.2e-08	0.5%	i	i	0%
Cc1ccc(Cn2c(C)nc3c(c2=O)c2nc4ccccc4nc2n3Cc2ccco2)cc1	6.5e-09	16%	i	i	.
COc1ccc(C#CC2C=CC(OC(C)=O)C(COC(C)=O)O2)cc1 (configuration not stated)	.	-0.4%&-0.3%[11.5 µM]	.	.	3%&3%[11.4 µM]

Copied from the entries so far, 4 compounds:
SMILES	A647 fluor	AID923	Resorufin fluor	A488 fluor	TSHR ag
CN(C)CC(C)(C)CNC(=O)C1CCN(Cc2ccccc2O)CC1	1e-09	0.1%	i	i	?
CCOc1ccc(C(=O)NCc2cccnc2)cc1	.	-1.7%	.	.	-2%[11.4 µM]
CCCn1c(N)c(C(=O)CN2CCN(S(=O)(=O)c3cccs3)CC2)c(=O)[nH]c1=O	3.2e-08	0.5%	i	i	0%
Cc1ccc(Cn2c(C)nc3c(c2=O)c2nc4ccccc4nc2n3Cc2ccco2)cc1	6.5e-09	16%	i	i	.

Following part:
SMILES	A647 fluor	AID923	Resorufin fluor	A488 fluor	TSHR ag
CCOc1cc(C)nc(NCCc2ccc(OC)c(OC)c2)n1	1e-09	-0.2%	i	i	6%
COc1ccc(/C(O)=C2/C(=O)C(=O)N(CCN3CCOCC3)C2c2ccc(C)cc2)cc1 (configuration not stated)	.	-0.1%	.	.	-2%[11.4 µM]
N#CC1=C(N)NC(SCC(=O)Nc2ccccc2)=C(C#N)C12CCCC2	.	1.5%	.	.	-18%
Cc1ccc2nc(NCc3ccccc3)[nH]c2c1	1e-09	.	i	i	.
O=C(CN(Cc1ccccc1Cl)C(=O)c1ccc(CN2CCOCC2)o1)NCc1ccccc1	3.2e-08	-0.1%	i	i	-2%
COc1ccc2c(C(=O)CN(C)C3CCCCC3)c[nH]c2c1	5.1e-08	4.6%	i	i	2%
NC(=O)C1(N2CCCCC2)CCN(C(=O)CCCn2c(=O)[nH]c3ccsc3c2=O)CC1	.	0.9%	.	.	-4%
COCCn1nnnc1C(C(C)C)N1CCN(C(=O)c2ccco2)CC1 (configuration not stated)	1e-09	-0.1%	i	i	-4%
COc1ccc(CC(=O)Nc2ccc(-c3noc(-c4cc(OC)c(OC)c(OC)c4)n3)cc2)cc1	1e-09	-0.8%	i	i	-1%
COc1ccc2cnn(CCOc3ccccc3)c(=O)c2c1OC	2.4e-09	-1.9%	i	i	9%
Cn1c(=O)n(CCC(=O)O)c2ccccc21	5.8e-09	.	i	i	.
Cc1ccnc2nc(C(=O)OCCOc3ccccc3)nn12	1e-09	-0.4%	i	i	-3%
O=C1NC(=O)C(CC(=O)N(Cc2ccco2)C2(C(=O)NC3CCCCC3)CCCCC2)N1 (configuration not stated)	9.3e-09	-1.9%	i	i	?
Cc1cc2ncn(C(=O)c3c(-c4ccccc4Cl)noc3C)c2cc1C	.	2.9%	.	.	22%
CCCCC(CC)COC(=O)C(C#N)=C(c1ccccc1)c1ccccc1 (configuration not stated)	.	-0.2%	.	.	12%
CCOc1ccccc1C1CC(=O)Nc2cc3c(cc21)OCO3 (configuration not stated)	2.8e-08	0.0%	i	i	26%
Cc1ccc(C)c2[nH]c(=O)c(CCNC(=O)c3cc4ccccc4o3)cc12	.	2.2%	.	.	11%
c1ccc2c(c1)CNc1ccccc1C2	2e-08	0.8%	i	i	4%
COc1ccccc1OCC(O)Cn1c(Br)nc2c1c(=O)[nH]c(=O)n2C (configuration not stated)	3.2e-08	-1.3%	i	i	-21%
O=C(NC(=Nc1ccccc1)N1CCOCC1)Nc1ccccc1	1.5e-08	-0.3%	i	i	?
COc1ccc2c(c1)S/C(=C\C(=O)c1ccncc1)N2C	.	21%	.	.	-15%
C[C@]12C=CC(=O)C=C1CC[C@@H]1[C@H]3C[C@@H](O)[C@](O)(C(=O)CO)[C@]3(C)C[C@H](O)[C@]12F	4.7e-08	.	i	i	5%
Cc1nnc(SCCN2CCOCC2)n1C	3.4e-08	1.8%	i	i	8%
O=S(=O)(c1ccccc1Cl)N1CCC(O)(c2ccc3c(c2)OCO3)CC1	2.4e-08	1.5%	i	i	25%
C=CCNC(=O)NC(=O)COC(=O)COc1ccc(Br)cc1F	1e-09	-1.8%	i	i	-3%
CC1CCN(C(=O)Cn2cc3c(n2)CCCC3)CC1	.	-1.4%	.	.	7%
CCN(CCCNC(=O)CN1C(=O)COc2ccccc21)c1cccc(C)c1	6e-09	0.1%	i	i	-8%
CC(=O)/C(C(=N)N1CCN(Cc2ccccc2)CC1)=C(\C)O	.	-0.4%	.	.	-3%
COc1cc(C2c3c(n[nH]c3C)C(=O)N2c2ccc(Br)cc2)ccc1O (configuration not stated)	5.1e-09	-2.7%	i	i	6%

Compound activity deposited in PubChem BioAssay by National Center for Advancing Translational Sciences (NCATS).

The list is partial. The share of hits here may be higher or lower than overall.
